# D2 potentiator – positive allosteric modulators of human D2 dopamine receptor; P14416; DiscoveRx D2 beta-arrestin cells, luminescence, 90 min; 100% = 57 uM dopamine signal; hit rate 0.23% among 360,000; potentiation, % (concentration not given with the values); active = potentiation of 50% or more; inconclusive = 30% to 50%; inactive = 30% or less;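 also: compound concentration not given in the record; tested on top of an EC20 dose of dopamine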
#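 PathHunter D2 cells, attached overnight at 37 deg C, received compound in DMSO plus dopamine at EC20 (50 nM final) for 90 min at 37 deg C. Beta-arrestin recruitment was read as luminescence after 1 h with detection reagent at ambient temperature.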
# Six1-Eya2 blk – blocks human Six1 binding to Eya2; activity change, % (test concentration not listed); Q15475+O00167; hit rate 0.56% among 360,000; AlphaScreen GST-Six1/His-Eya2 binding, biochemical; active compounds read low; control for the full effect not named in the record; in the data active = activity change below about -65%; inconclusive = about -30% to -65%; inactive = above about -30%; also: % is scaled to controls: 0 for no effect and ±100 for the full control effect
#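 Compounds are tested against tagged Six1 and Eya2 proteins bridged by glutathione donor and nickel acceptor beads; after a one-hour incubation at 37 °C without light, AlphaScreen emission is recorded.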
# CtBP-E1A blk – inhibitors of CtBP/E1A interaction. AlphaScreen GST-E1A/His-CtBP binding, 1536-well; active compounds read low; control for the full effect not named in the record. activity change, % (no concentration beside the values). hit rate 0.49% among 340,000. AID 651724; in the data active means activity change below about -65%; inconclusive means about -30% to -65%; inactive means above about -30%; also: % is scaled to controls: 0 for no effect and ±100 for the full control effect
#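 Homogeneous bead-based format: GST-tagged E1A captured on glutathione donor beads, His-tagged CtBP on nickel acceptor beads; compounds precede bead addition by 2 h at 37 °C.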
# TRPV1 PAM – enhances activation of the human vanilloid receptor TRPV1 | Q8NER1 | hit rate 0.02% among 320,000 | TRPV1-expressing cells, Fluo-8 calcium influx, capsaicin EC20 potentiation; host cell line not named in the record; control for the full effect not named in the record | potentiation, % at 8.33 µM; active means potentiation above 80%; inconclusive means 30% to 80%; inactive means below 30%; also: 0% is about no effect
# Target sequence (Q8NER1 whole entry, looked up): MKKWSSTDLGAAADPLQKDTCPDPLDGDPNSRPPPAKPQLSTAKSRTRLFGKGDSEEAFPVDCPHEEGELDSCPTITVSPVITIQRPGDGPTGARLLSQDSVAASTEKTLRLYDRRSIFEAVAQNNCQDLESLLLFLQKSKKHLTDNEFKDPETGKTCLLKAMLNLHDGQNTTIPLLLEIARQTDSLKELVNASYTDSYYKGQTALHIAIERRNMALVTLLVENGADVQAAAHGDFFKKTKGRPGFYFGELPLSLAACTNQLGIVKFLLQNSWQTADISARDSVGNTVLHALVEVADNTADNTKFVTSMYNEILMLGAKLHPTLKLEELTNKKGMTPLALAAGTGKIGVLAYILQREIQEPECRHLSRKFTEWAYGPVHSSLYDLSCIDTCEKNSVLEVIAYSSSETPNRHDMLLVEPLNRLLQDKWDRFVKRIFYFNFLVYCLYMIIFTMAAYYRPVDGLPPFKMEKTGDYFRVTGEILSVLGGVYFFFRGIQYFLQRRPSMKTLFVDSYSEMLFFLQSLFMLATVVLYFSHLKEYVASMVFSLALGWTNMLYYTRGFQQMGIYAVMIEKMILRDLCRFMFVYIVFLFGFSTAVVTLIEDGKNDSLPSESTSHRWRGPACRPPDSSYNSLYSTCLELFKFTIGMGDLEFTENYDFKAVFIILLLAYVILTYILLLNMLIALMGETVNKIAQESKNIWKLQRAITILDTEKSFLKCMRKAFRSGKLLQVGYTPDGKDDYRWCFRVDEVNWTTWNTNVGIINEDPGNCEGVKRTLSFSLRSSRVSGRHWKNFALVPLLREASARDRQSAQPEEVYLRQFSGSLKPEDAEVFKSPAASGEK
#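 Cells expressing TRPV1 were dye-loaded with Fluo-8 and read kinetically: 10 s baseline, 3 min after compound (agonist portion), then 2 min after EC20 capsaicin (allosteric enhancer portion). Calcium-bound dye fluorescence at 480/520 nm.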
# TRPML1 ag – activates the human TRPML1 channel. Q9GZU1. TRPML1-expressing cells, Ca2+ dye fluorescence, FDSS; host cell line not named in the record; reference of the full effect not given here. activation, % (test concentration not listed). hit rate 0.12% among 410,000. AID 624414; in the data active = activation above about 50%; inconclusive = about 30% to 50%; inactive = below about 30%; also: 0% is about no effect; the text of the record puts the active cut at 80%
#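 TRPML1-DL cells, Tet-induced overnight (~16 h, 37 degrees C), loaded 45-90 min at room temperature with Ca8 no-wash calcium dye plus quencher. FDSS fluorescence: 10 s baseline, compound pin-transfer, 110 s agonist read, then EC80 54-4 (4uM final) and 110 s antagonist read.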
# TRPML1 blocker – human mucolipin-1 channel inhibition; Q9GZU1; TRPML1-inducible cells, Ca2+ dye fluorescence, FDSS; active compounds read low; inhibition of EC80 agonist-evoked calcium signal; activity change, negative = inhibition, % (concentration not given with the values); hit rate 0.02% among 390,000; in the data active means activity change below about -50%; inconclusive means about -30% to -50%; inactive means above about -30%;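 also: stimulus is agonist 54-4 at its EC80 concentration; % is scaled to controls: 0 for no effect and ±100 for the full control effect; the text of the record puts the active cut at -80%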
#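 Calcium fluorescence in TRPML1-DL cells induced overnight with Tet: a 110 s read after compound pin addition, then a 110 s antagonist read after challenge with 54-4 at 4 uM final (EC80).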
# The depositor's hits bear a star; ? = inconclusive; / = not tested or not shown; & = joins results of further samples.
SMILES,D2 potentiator,Six1-Eya2 blk,CtBP-E1A blk,TRPV1 PAM,TRPML1 ag,TRPML1 blocker
COc1ccc(C(=O)N2CCCN(C)CC2)cc1S(=O)(=O)N(C)Cc1ccccc1,-3,-1,-4,-3,1.8,29
Nn1c(Cc2ccccc2)nc2cc(Cl)ccc2c1=O,-2,6,19,95*,0.6,-15
COc1ccc(C(=O)NC(=S)Nc2ccc3[nH]c(=O)[nH]c3c2)cc1,-1,-1,-1,15,0.5,-15
O=C(COC(=O)c1cccc(S(=O)(=O)N2CCCC2)c1)c1ccc(F)cc1,-5,3,4,/,-1.0,-6
Oc1ccccc1C1NN=C(c2ccccc2)S1 (configuration not stated),-11,8,-23,-1,0.8,20
CCOC(=O)/C(C#N)=C\c1cn(C)c2ccccc12,-10,1,-11,-22,-0.1,37
Cc1cc(C)cc(NC(=S)N2CCN(S(C)(=O)=O)CC2)c1,-9,-5,7,2,-0.2,7
Cc1ccc(N2CC(NS(=O)(=O)c3cccnc3)CC2=O)cc1C (configuration not stated),-3,0,11,-3,?,-2
C=C(C(=O)c1ccccc1)C(CC(=O)c1ccccc1)c1ccccc1 (configuration not stated),-3,0,3,-7,0.6,-2
Clc1ccc(-c2csc3ncnc(N4CCc5ccccc5C4)c23)cc1,2,-15,-11,2,-0.1,1
Cc1ccc(NS(=O)(=O)c2ccc(CCC(=O)NCCCOC(C)C)cc2)cc1,-11,-2,-1,1,-0.1,-9
CC1(C)CC(=O)C(C=NCc2ccccn2)=C(O)C1,-11,-11,-6,15,0.5,36
CCC(C)c1ccccc1N1CC(C(=O)Nc2cc(S(=O)(=O)N3CCOCC3)ccc2OC)CC1=O (configuration not stated),-17,0,-8,/,0.2,9
O=C(CN1CCN(c2ncc(C(F)(F)F)cc2Cl)CC1)Nc1ccc2c(c1)OCO2,-11,-4,12,-1,-0.5,-2
CC(NC(=O)c1ccco1)C(=O)OCc1cccc(Cl)c1 (configuration not stated),-5,1,0,-42,-0.2,7
COc1ccc(-c2cn[nH]c2-c2ccc(OCc3ccccc3F)cc2O)cc1OC,-4,-15,?,6,/,/
CCc1nc(SC)[nH]c(=O)c1C,0,-1,2,0,0.0,-5
CCCCNC(=O)c1cnc2n(c1=O)CCS2,-16,-11,-1,-4,2.5,8
CCN(CCCNc1ncnc2nc[nH]c12)c1cccc(C)c1,8,-16,-2,-22,-0.1,12
COc1ccc(C(=O)C2CCCN(C(=O)C3=CCCC3)C2)cc1OC (configuration not stated),-3,4,6,9,0.2,41
C=CCn1c(SCC(=O)N(CC)C2CCS(=O)(=O)C2)nc2cc(C(=O)O)ccc2c1=O (configuration not stated),-11,9,/,4,-1.0,-18
c1cc[n+](CCC[n+]2ccccc2)cc1,-7,3,0,-3,-0.4,11
COc1ccc(CNC(=O)CN(C2CCCCC2)S(C)(=O)=O)cc1,-12,-10,2,-3,0.2,-1
CCN1CSC(=S)N(Cc2ccccc2)C1,-9,8,-1,7,-0.8,3
CN1CCC(CNC(=O)Nc2ccccc2)(c2ccccc2)CC1,-6,-1,2,4,-0.3,4

# The listing continues:
SMILES,D2 potentiator,Six1-Eya2 blk,CtBP-E1A blk,TRPV1 PAM,TRPML1 ag,TRPML1 blocker
CCCCNC(=S)Nc1cc(S(=O)(=O)N2CCCCC2)ccc1C,-7,11,0,1,1.6,38
O=C(CSc1ncnc2sccc12)Nc1ccccc1,-7,-5,1,-21,-0.8,-8
CCn1c(SCC(=O)N(C(C)C)C(C)C)nnc1-c1cc2ccccc2cc1O,2,-2,1,7,-1.4,-6
Cn1c(-c2ccc(C=O)s2)nc2ccccc21,-8,-1,9,4,0.5,5
CN1CCN(C(CNS(=O)(=O)c2ccc([N+](=O)[O-])cc2)c2ccc(F)cc2)CC1 (configuration not stated),6,-6,8,?,0.2,-1
COc1cc(NC(=O)C(C)C)ccc1NC(=O)c1cc2ccccc2o1,24,6,/,-4,/,/
Cn1c(=O)oc2cc(S(=O)(=O)N3CCCc4ccccc43)ccc21,1,11,18,1,-0.5,-8
CSc1sc(C(=O)Nc2ccc(F)cc2F)c2c1C=CCC2,-15,15,11,-4,0.2,7
COc1cc(O)c(C(CC(=O)N2CCCC(C)C2)c2ccc3c(c2)OCO3)c(OC)c1 (configuration not stated),-3,2,19,-17,1.8&1.2,-7&-2
O=C(O)c1nc(-c2ccccc2)c(C(=O)NC2CC2)[nH]1,-12,12,2,/,0.0,/
O=C(NCC(=O)N(Cc1ccccc1)C(C(=O)NC1CCCC1)c1cccnc1)c1ccco1 (configuration not stated),-9,4,-3,-1,0.5,-15
COc1ccc(NC(=O)NNC(=O)CCc2ccc(O)c(O)c2)cc1OC,2,-21,-2,-5,0.3,3
O=C(Cc1ccc([N+](=O)[O-])cc1)NC1CCCCCC1,-5,2,-5,-15,0.9,-9
Cc1nn(-c2ccccc2)c(=O)c2noc(C)c12,-18,3,1,/,0.1,58
CN(C)c1ccc(C=c2c3cc([N+](=O)[O-])ccc3n3c2cc(-c2ccccc2)[n+]3C)cc1,-25,-80*,6,/,0.2,38
Cc1nnc(Nc2ccccn2)c2ccccc12,-23,-28,2,24,-0.6,1
CNc1nc(Cl)c(SC)c(NCc2cccc(OC)c2)n1,-5,10,4,0,1.7,21
Cc1cc([N+](=O)[O-])ccc1NCc1cccc2ccccc12,-4,-19,2,/,2.1,20
Cc1ccc(C(=O)Oc2oc(-c3ccccc3)nc2C=Nc2ccc(N(C)C)cc2)cc1,-18,-9,1,-10,2.1,-13
O=C(Cn1ncc(Cl)c(Cl)c1=O)N1CCc2ccccc21,-1,1,8,-2,0.1,-12
CC(C)(C)c1ccc(/C=C/C(=O)Nc2ncccn2)cc1,-19,0,0,-6,0.8,-2
CCCc1nn2c(=O)cc(CSCC(=O)Nc3ccccc3)nc2s1,-9,2,1,0,-0.2,-10
Nn1c(Cc2ccccc2F)nnc1SCn1nnc2ccccc2c1=O,11,2,1,?,-0.8,3
CC(C)(C)OC(=O)C[C@H]1C/C=C\C[C@H](CC(=O)N[C@H](CO)Cc2ccccc2)C(=O)N[C@H](Cc2ccccc2)COC1=O,/,-1,4,/,-0.1,18
COCCn1c(SCC(=O)NCc2ccc(F)cc2)nc2ccccc21,-5,2,9,3,-0.4,-10

# Carrying on:
SMILES,D2 potentiator,Six1-Eya2 blk,CtBP-E1A blk,TRPV1 PAM,TRPML1 ag,TRPML1 blocker
COc1ccc(OCC2c3cc(OC)c(OC)cc3CCN2C(=O)C(C)C)cc1 (configuration not stated),-7,3,3,-6,1.4,-9
CCOC(=O)c1cc(-c2csc(Nc3c(C)cc(C)cc3C)n2)on1,-17,17,7,/,1.1,-9
COc1ccc(OCC(=O)N2CCCC2=O)c([N+](=O)[O-])c1,-3,0,4,-8,-0.1,2
Cc1c([N+](=O)[O-])c2ccc(O)cc2n1-c1ccccc1,-8,4,/,/,1.3,29
Cc1ccc(CNS(=O)(=O)c2c(C)nc3scc(C)n3c2=O)cc1,-8,4,2,-13,0.0&-0.3,-4&-10
NS(=O)(=O)c1cc(C(=O)NCCOc2ccccc2)c(Cl)cc1Cl,-17,25,5,2,-0.1,-1
O=C(COc1cccc(Cl)c1Cl)Nc1ccc2c(c1)CCC2,-7,7,13,-18,0.1,15
CN1CCCN(Cc2nc(-c3ccc(Cl)cc3)no2)CC1,-14,-4,-13,10,0.5,-13
O=C(O)CSCc1nc2scc(-c3ccccc3)c2c(=O)[nH]1,5,-2,0,2,-0.7,1
O=C(COC(=O)Cc1ccc(-c2ccccc2)cc1)NCc1ccccc1,2,0,6,-6,2.7,-3
Cc1ccc(N2C(=O)N(CC(=O)Nc3ccccc3C(F)(F)F)C(=O)C2C)cc1 (configuration not stated),-7,-5,0,4,1.5,1
O=C(CCN1C(=O)COc2ccccc21)NCc1ccco1,-5,4,8,-7,0.1,2
Cc1ccc2nc(N)nnc2c1,-8,-1,1,/,-0.5,-10
Cn1c(=O)oc2cc(S(=O)(=O)NCCC(=O)N3CCN(c4ccccc4)CC3)ccc21,-8,-1,-5,-10,-0.3,-13
O=C(NCCCn1ccnc1)C(=O)NCC(c1ccco1)N1CCN(c2ccccc2)CC1 (configuration not stated),15,-2,1,-6,/,/
O=C(COc1ccc([N+](=O)[O-])cc1)Nc1ccc(NC(=O)c2ccccc2)cc1,-4,2,-4,-3,0.2,11
O=C(O)/C=C/C(=O)NCCNc1ncc(C(F)(F)F)cc1Cl,-16,10,-4,4,0.7,-9
Cc1ccc(NC(=O)N2CCC(C(=O)NCCC3=CCCCC3)CC2)cc1,1,9,-1,-18,-1.1,25
Cc1nc(C)n(CC(C)C(=O)N2CCN(S(=O)(=O)c3ccccc3)CC2)n1 (configuration not stated),-1,2,-23,4,0.0,-18
CCc1c(C)nc2cc(-c3ccc(Cl)cc3)[nH]n2c1=O,6,-12,-5,4,2.1,15
CCCCn1c(N)c(N(CCOC)C(=O)c2cc(S(=O)(=O)N3CCCCC3)ccc2C)c(=O)[nH]c1=O,-3,-1,3,-10,0.3,7
CN(Cc1ccccc1)C(=O)c1cc2cc(F)ccc2[nH]1,1,-7,-10,-12,0.3,5
Cc1c(C(=O)N2CCCc3ccccc32)sc2nc(-c3ccccc3)cn12,-4,-5,-2,10,1.2,-1
Cc1ccc(S(=O)(=O)N2[C@@H](c3cccc(Cl)c3)C(C(=O)O)=CC[C@H]2c2cccc(C)c2)cc1,-22,7,-1,8,-0.6,-6

# Another view of some results above.
Cc1ccc(NC(=O)N2CCC(C(=O)NCCC3=CCCCC3)CC2)cc1
  D2 potentiator: 1 | Six1-Eya2 blk: 9 | CtBP-E1A blk: -1 | TRPV1 PAM: -18 | TRPML1 ag: -1.1 | TRPML1 blocker: 25

Cc1nc(C)n(CC(C)C(=O)N2CCN(S(=O)(=O)c3ccccc3)CC2)n1 (configuration not stated)
  D2 potentiator: -1 | Six1-Eya2 blk: 2 | CtBP-E1A blk: -23 | TRPV1 PAM: 4 | TRPML1 ag: 0.0 | TRPML1 blocker: -18

CCc1c(C)nc2cc(-c3ccc(Cl)cc3)[nH]n2c1=O
  D2 potentiator: 6 | Six1-Eya2 blk: -12 | CtBP-E1A blk: -5 | TRPV1 PAM: 4 | TRPML1 ag: 2.1 | TRPML1 blocker: 15

CCCCn1c(N)c(N(CCOC)C(=O)c2cc(S(=O)(=O)N3CCCCC3)ccc2C)c(=O)[nH]c1=O
  D2 potentiator: -3 | Six1-Eya2 blk: -1 | CtBP-E1A blk: 3 | TRPV1 PAM: -10 | TRPML1 ag: 0.3 | TRPML1 blocker: 7

# Filtered by structure, the compounds so far containing a thiophene ring, fused or not.
SMILES,D2 potentiator,Six1-Eya2 blk,CtBP-E1A blk,TRPV1 PAM,TRPML1 ag,TRPML1 blocker
Clc1ccc(-c2csc3ncnc(N4CCc5ccccc5C4)c23)cc1,2,-15,-11,2,-0.1,1
O=C(CSc1ncnc2sccc12)Nc1ccccc1,-7,-5,1,-21,-0.8,-8
Cn1c(-c2ccc(C=O)s2)nc2ccccc21,-8,-1,9,4,0.5,5
CSc1sc(C(=O)Nc2ccc(F)cc2F)c2c1C=CCC2,-15,15,11,-4,0.2,7
O=C(O)CSCc1nc2scc(-c3ccccc3)c2c(=O)[nH]1,5,-2,0,2,-0.7,1

# Assay outcomes deposited in PubChem by National Center for Advancing Translational Sciences (NCATS).
